Screens: PubChem BioAssay, several laboratories
CSC inhib – blocks cancer stem cells; cancer stem cell-like cells viability, luminescence; AID 2717; actives 1.1% (n = 300,000); inhibition, % at 7.5 µM;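 active = mean at 75% or more and at least half the replicates too; inconclusive = mean and replicates disagree; tested in HMLE shEcad cells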;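 note: 0% = median of negative and 100% = median of positive control wells; the first replicate is given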
Rce1 inh – blocks yeast Ras-converting enzyme; Q03530; yeast membranes, quenched prenylated peptide cleavage fluorescence; calls only; actives 0.27% (n = 290,000);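 active = fall in fluorescence gain of 50% or more versus controls, with final raw signal at or below 3038400; inconclusive = same 50% fall but final raw signal above 3038400; inactive = fall in fluorescence gain under 50%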;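 note: plate controls were neutral control wells for no effect and wells lacking membranes for full effect; tested at 10 µM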
MT1-MMP act inh – MT1-MMP (human) activation inhibition. HT1080 RFP-PRO-GFP cells, GFP/RFP ratio fluorescence, overnight; percent of plate control window, DMSO zero. actives 0.061% (n = 360,000). GFP/RFP ratio change, % at 20 µM. P50281;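 active = GFP/RFP ratio change of at least 30% with cell ATP level not reduced by more than half and red fluorescence within 50% of control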; note: strong numbers were not always called active
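Compound: 20 µM single dose, 1% DMSO / System: HT1080 RFP-PRO-GFP cells / Controls: DMSO and RFP-L50D-GFP cell wells / Read-out basis: GFP/RFP fluorescence ratio / Schedule: overnight compound exposure at 37 °C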
PABP FP inh – PABP-poly(A) binding inhibition; P11940; PABP-poly(A) RNA binding, fluorescence polarization; inhibition, % at 35 µM; actives 1% (n = 290,000);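 active = 50% or more with normal probe brightness, or confirmed in later tests; inconclusive = above 50% with abnormal brightness, or retests that disagree; inactive = below 50% or failed in later tests; about a fifth of its hits are not listed in these tables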;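 note: calls also rest on retests at 20 µM and on dose response follow-up; controls were probe without protein and protein plus probe with vehicle; some compounds called inactive have numbers as strong as hits; many hits fall short of the cut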
Target sequence (P11940 whole entry, looked up): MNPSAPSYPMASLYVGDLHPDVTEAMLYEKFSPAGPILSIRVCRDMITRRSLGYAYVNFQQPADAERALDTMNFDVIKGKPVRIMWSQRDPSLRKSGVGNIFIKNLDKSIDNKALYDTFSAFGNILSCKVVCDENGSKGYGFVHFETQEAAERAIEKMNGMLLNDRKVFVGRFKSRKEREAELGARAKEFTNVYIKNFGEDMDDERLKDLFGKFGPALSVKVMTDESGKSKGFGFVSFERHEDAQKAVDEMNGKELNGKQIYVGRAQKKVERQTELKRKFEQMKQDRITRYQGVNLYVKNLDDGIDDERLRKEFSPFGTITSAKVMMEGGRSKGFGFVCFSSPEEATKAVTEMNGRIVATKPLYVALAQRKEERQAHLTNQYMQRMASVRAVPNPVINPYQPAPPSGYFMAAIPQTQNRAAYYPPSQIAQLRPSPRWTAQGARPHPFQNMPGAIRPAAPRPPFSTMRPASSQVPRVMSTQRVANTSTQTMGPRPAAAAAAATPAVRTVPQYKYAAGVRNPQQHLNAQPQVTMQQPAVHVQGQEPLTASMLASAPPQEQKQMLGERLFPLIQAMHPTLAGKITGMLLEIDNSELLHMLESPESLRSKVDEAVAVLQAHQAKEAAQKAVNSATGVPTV
eIF4H inh – inhibitors of RNA binding by human eIF4H; Q15056; eIF4H fluorescence polarization binding assay; inhibition, % at 35 µM; actives 0.94% (n = 290,000); AID 2012;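 active = 50% or more with normal probe brightness, or confirmed in later tests; inconclusive = above 50% with abnormal brightness, or retests that disagree; inactive = below 50% or failed in later tests; about a fifth of its hits are not listed in these tables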;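 note: calls also rest on retests at 20 µM and on dose response follow-up; 0% = protein and probe with vehicle and 100% = probe without protein; strong numbers were not always called active; many hits fall short of the cut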
Yeast UUG start – modulators of start codon recognition fidelity in yeast. S. cerevisiae UUG-firefly luciferase reporter, luminescence/redox ratio. activity score, % at 18.7 µM. actives 0.13% (n = 350,000). AID 602363;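 active = replicate mean at a twofold rise or more, about +100% in these data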;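 note: firefly luciferase made from a UUG start codon reports start codon fidelity; reporter light over untreated wells divided by growth signal over untreated wells; some hits fall short of that in this replicate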
Env fusion inh – HIV envelope-mediated fusion inhibition; HeLa-JRFL Env/CEM21 cell fusion, luciferase; inhibition, % at 12.3 µM; actives 1.1% (n = 360,000); AID 651610;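 active = mean replicate inhibition score of at least 50 and every replicate individually at or above 50; inconclusive = only one of the two criteria met; inactive = mean below 50 and not all replicates reaching 50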;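 note: 0% = plate neutral controls and 100% = maraviroc near 300 nM; one replicate is shown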
eIF4H inh retest – further read-out of eIF4H inh, marked with its call; inhibition, %; compound at 20 µM; confirmation average;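 mean of two retest wells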
PABP FP inh retest – also measured in PABP FP inh; calls as there; inhibition, %; compound at 20 µM; confirmation repeats;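 mean of two retest wells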
MT1-MMP act inh RFP – further read-out of MT1-MMP act inh, marked with its call; RFP signal change, %; measured here: RFP expression control read;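 0 = vehicle wells; hits needed this value within 50% of zero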
* = called active by the depositor; i = inactive; ? = inconclusive; . = not tested or not shown; & = joins results of further samples; [ ] = another dose, or the depositor's remark. The list is partial (hit frequency here may not be typical).

SMILES	CSC inhib	Rce1 inh	MT1-MMP act inh	MT1-MMP act inh RFP	PABP FP inh	eIF4H inh	Yeast UUG start	Env fusion inh	others
Brc1ccc(-c2nc(-c3ccccc3)no2)o1	-10	.	-5	1	10	-1	-7	-267
CCCCCOc1ccc(Cl)cc1CN1CCOCC1	33	i	-1	-2	3	-2	.	.
CCN(CC)S(=O)(=O)c1ccc(N2CC(C(=O)NCc3ccco3)CC2=O)cc1 (stereo not drawn)	.	.	2	0	.	.	-12	15
C=CCOc1ccccc1CN1CCCCCC1	-12	i	3	3	2	4	-18	8
OCC[C@@H]1C[C@H](O)[C@@H](O)[C@]2(CCCc3ccccc3O2)O1	-6	i	-3	1	-8	1	-15	22
O=C(CSc1nnnn1-c1cccc(F)c1)NC1CCCCC1	-1	.	6	-2	.	.	-18	7
O=C(/C=C/c1ccccc1Cl)Nc1ccc(Cl)cn1	-10	i	1	7	9	-3	.	-34
O=S(=O)(NN=C1CCCCC1)c1ccccc1	7	i	4	2	6	-4	-17	-1
CC(=O)c1ccc(-c2nnc(CCC(=O)N(C)Cc3cnc4ccccn34)o2)s1	-6	i	-1	5	7	-1	.	1
CN(CC(=O)Nc1ccc(Cl)cc1)C1=NS(=O)(=O)c2ccccc21	-5	.	-3	-2	.	.	1	5
COc1ccc(C(=O)NC(=S)N2CCOCC2)cc1Br	-19	i	3	1	9	-11	-18	-10
CCc1c(C(=O)N2CCCN(C)CC2)csc1C	-1	i	-3	3	-6	-11	-22	2
COc1ccc(COCC(O)CN(Cc2ccccc2)C(C)C)cc1OC (stereo not drawn)	-23	i	4	7	6	-9	.	18
CC(=O)N/C(=C\c1ccccc1)C(=O)OCC(=O)NC1CCCC1	8	i	-4	0	8	-2	-36	.
O=C(CSc1nnc(-c2ccco2)o1)c1ccc(O)cc1O	-8	i	.	.	-2	25	-7	5
CC1(C)Cc2cccc(Oc3ccc(S(=O)(=O)N4CCCCC4)cn3)c2O1	3	i	-6	-6	17	0	6	7
CSc1ccccc1C(=O)N1CCN(c2ccc(F)cc2)CC1	1	i	-5	4	10	-3	-3	-37
Cc1cccc(-n2c(CNC(=O)c3ccc(S(=O)(=O)N(C)C)cc3)nnc2SCC(=O)Nc2ccc(F)cc2)c1	2	i	-3	-5	-10	8	-6	-9
Cc1nc([N+](=O)[O-])cn1CC(O)c1ccc(Cl)cc1 (stereo not drawn)	1	i	2	2	5	-8	-20	13
CCCCN1C(=O)C2Cc3c([nH]c4ccccc34)CN2C1=S (stereo not drawn)	8	i	-135	-1	-1	20	.	-8
COc1cccc(/C=N/n2c(-c3cc(C)[nH]n3)n[nH]c2=S)c1	-13	i	2	0	-12	-1	.	-24
CC[C@H](C)C(=O)O[C@H]1CCC=C2C=C[C@H](C)[C@H](CC[C@@H]3C[C@@H](O)CC(=O)O3)[C@H]21	33	i	-2	-6	13&9	0&2	0	?
Clc1ccc2nc(N3CCNCC3)nc(-c3ccccc3)c2c1	18	i	-15	-19	14	24	-8	-57
CCCCc1nnc(NC(=O)C23CC4CC(CC(NC(C)=O)(C4)C2)C3)s1	-1	i	1	-3	1	-1	-13	-5
Cc1c(-c2ccc(Br)cc2)nc2ccccn12	-3	i	-5	0	6	-5	.	-155
Cc1cc(/C=C(\C#N)C(=O)NCc2ccco2)c(C)[nH]1	-18	i	-3	-2	25	52	-17	.	eIF4H inh retest=-5;PABP FP inh retest=-6
O=C(NNC(=O)c1cc([N+](=O)[O-])ccc1Cl)c1cccs1	5	i	1	0	-9	-3	.	5
COc1cccc(NC2c3ccccc3C(=O)N2Cc2ccccc2Cl)c1 (stereo not drawn)	32	i	1	4	4	1	-16	36
Cc1oc2c(O)c(O)ccc2c(=O)c1-c1ccc(Cl)cc1	17	i	0	-8	12	6	-21	-28
COc1ccc(CCn2c(C)cc(C(=O)COC(=O)c3cnccn3)c2C)cc1	7	i	-7	-2	-1	27	16	10
COc1cccc(CNC(=O)CCCCCn2c(=S)[nH]c3ccc(N4CCOCC4)cc3c2=O)c1	-6	i	.	.	-5	60	.	11	eIF4H inh retest=29;PABP FP inh retest=49
CCCNC(=O)C1CC(=O)N(c2ccc(OCc3ccc(Cl)cc3)cc2)C1 (stereo not drawn)	.	i	7	-10	-1	13	1	-97
C=CCn1c(SCc2cc(=O)n3ccsc3n2)nc2cc(Cl)ccc2c1=O	0	i	-4	-4	30	1	.	19
N#CC(=C1SC=CS1)c1nc(-c2ccccc2)cs1	19	i	-7	3	1	0	-1	.
CC(c1ccncn1)N(C)Cc1nc(-c2ccc(C(F)(F)F)cc2)no1 (stereo not drawn)	-5	.	-2	-4	-5	-7	-12	13
CC(OC(=O)CNC(=O)c1ccco1)C(=O)N(C)c1ccccc1 (stereo not drawn)	-13	i	-3	0	2	5	.	18
NC(=O)C1CCN(Cc2nnnn2Cc2ccco2)CC1	-8	i	7	14	-10	-2	1	-104
CCC(C)NC(=O)C1c2ccccc2Oc2ccccc21 (stereo not drawn)	5	i	1	5	-3	-6	.	5
CCOc1ccccc1C(=O)NCC(=O)N1CCC(C)CC1	-8	.	4	2	.	.	-3	14
c1ccc(-c2cn(-c3ccccc3)c3[n+]2CCS3)cc1	0	i	-2	-21	3	6	1	29
COc1ccc(C)cc1NC(=O)c1ccc(NC(=O)CC2SC(N3CCCC3)=NC2=O)cc1 (stereo not drawn)	-3	i	1	1	14	-6	-15	-26
C[C@@H]1CCCCO[C@H](CN(C)S(=O)(=O)c2cccs2)[C@@H](C)CN([C@H](C)CO)C(=O)c2cc(NC(=O)C3CCCCC3)ccc2O1	.	.	-3	0	.	.	11&-10	0[16.7 µM]
COc1cc(/C(C)=N/NC(=O)CN2CCN(S(=O)(=O)c3ccc(C)cc3)CC2)ccc1O	-5	i	1	0	3	-6	4	0
CCN(CC)S(=O)(=O)c1ccc(-c2nnc(SCc3nnc(-c4ccccc4)o3)o2)cc1	-4	i	-15	-7	-1	1	-30	-11
Cc1ccsc1C(=O)Nc1ccccc1N1CCCC1	-2	i	1	-2	.	.	74	-4
COC(=O)CN1C(=O)[C@H]2[C@@H](C3CC3)N3C(=O)CN(CCO)C(=O)[C@@]3(Cc3ccccc3)[C@H]2C1=O	-4	i	-1	2	13	7	-21	-135
CCc1cc(=O)oc2cc(C)c(CN3CCCC(C)C3)c(O)c12 (stereo not drawn)	-5	i	-4	7	63*	63*	9&1	-11
Brc1ccc(-c2nnc3sc(CNCc4ccc5c(c4)OCO5)cn23)cc1	19	i	3	0	-3	-10	-20	-9
Cc1cc2n(n1)C(c1cn(-c3ccccc3)nc1C)Nc1c(C)cccc1-2 (stereo not drawn)	14	i	0	3	-4	-4	-12	18
Cn1c(=O)c([N+](=O)[O-])c(N2CCSCC2)c2ccccc21	-5	i	0	-4	13	-12	-10	14
Going on with the list:
SMILES	CSC inhib	Rce1 inh	MT1-MMP act inh	MT1-MMP act inh RFP	PABP FP inh	eIF4H inh	Yeast UUG start	Env fusion inh	others
CCc1nc2ccc(C(=O)N3CCN(S(=O)(=O)CC)CC3)cn2c1N(CCC(C)C)CCN(C)C	.	.	2	6	.	.	-7	-22
COc1cccc(NC(=O)NNC(=O)C(C)Oc2ccc3ccccc3c2)c1 (stereo not drawn)	-9	i	2	2	8	10	-12	-1
O=Cc1ccc(N2CCCC2)c([N+](=O)[O-])c1	-11	i	4	1	10	-4	.	-17
Cc1cc(N2C(=O)C3C4C=CC(C4)C3C2=O)no1 (stereo not drawn)	-4	i	-5	0	-10	4	-7	-59
O=c1cc(-c2ccccc2)[nH][nH]1	-10	i	0	2	-8	11	-20	.
Oc1ccc(/C=N/Nc2nc(-c3ccccc3F)nc3ccccc23)c(O)c1	123*	i	-30	0	14	50	.	23
O=C(CN1C(=O)c2ccccc2C1=O)NCCc1c[nH]c2ccccc12	-9	i	3	-1	-8	-7	.	7
O=C1Cc2cc([N+](=O)[O-])ccc2N1c1c(Cl)cccc1Cl	-2	i	7	7	0	1	-16	6
O=C(O)CSc1nnc(COc2cccc3ccccc23)o1	-11	i	0	-1	-6	6	-9	10
COc1ccc(CNC(=O)CN(c2ccc(OC)c(Cl)c2)S(=O)(=O)c2ccc(C)cc2)cc1	-1	i	-1	0	-2	-5	-9	-5
O=C(CCCOc1ccc(Cl)cc1)NC1CCCCC1	-16	i	2	2	6	14	-7	-14
CCOCCCNC(=O)c1ccc2c(c1)ncn2-c1ccccc1OC	-5	i	1	0	3	7	-16	?
O=C(NCCc1cn2cccnc2n1)C1CCC(=O)N(Cc2ccccc2F)C1 (stereo not drawn)	.	.	2	8	.	.	-21	17
CC(C)CC(c1nnnn1Cc1ccccc1)N1CCN(C(=O)c2ccco2)CC1 (stereo not drawn)	-8	i	-4	3	7	-2	10	.
C[C@@H](C(=O)NCCc1ccc(F)cc1)N1C(=O)N2CCc3c([nH]c4ccccc34)[C@@]2(C)C1=O	-3	.	1	-32	-5	-1	-8	.
O=S(=O)(NCC1(N2CCOCC2)CCCCC1)c1ccccc1Cl	-1	i	1	-3	.	.	-4	13
CCOC(=O)C(=CNc1cc(C)nn1-c1ccc(Cl)cc1)C(=O)OCC	-9	i	-7	-3	-19	-6	-46	-128
CCOC(=O)c1cc(-c2cccnc2)nn1-c1ccccc1C	-19	i	-2	-1	9	-1	-11	5
O=c1[nH]c2ccc(Br)cc2c(-c2ccccc2)c1CN1CCOCC1	-7	i	-5	6	36	0	-16	3
O=C(NCCc1ccccc1)C1CCN(S(=O)(=O)c2cccc3nonc23)CC1	-10	i	-2	-2	-5	12	-14	.
O=C(COc1ccccc1)NCC(=O)NC1CCCCC1	-4	i	2	0	3	-1	.	10
O=C(c1ccccc1NS(=O)(=O)c1ccc(F)cc1F)N1CCCCC1	-4	.	-5	2	.	.	5	5
CC1(C(=O)NCC2CCCCC2)CCN1C(=O)Cc1ccc(-c2ccccc2)cc1 (stereo not drawn)	.	.	3	-14	.	.	2	7
Cc1[nH]c(=O)[nH]c(=O)c1Sc1ccccc1[N+](=O)[O-]	-9	i	0	4	-1	1	-8	-18
CCOC(=O)C1=C(CBr)NC(=O)NC1C (stereo not drawn)	-4	i	-4	4	-2	-5	-13	4
Cc1ccc(/C=c2\sc3n(c2=O)CN(c2cccc(Br)c2)CN=3)o1	-10	i	-2	1	21	26	-2	-70
Cc1cc(C)c(C)c(S(=O)(=O)NCC(=O)NCC2CCCCC2)c1C	-22	i	-3	-5	13	-14	.	8
